Assay outcomes deposited in PubChem by Broad Institute.
Vaccinia stage: blocks a specific stage of Vaccinia orthopoxvirus infection. Vaccinia-infected cells, mCherry/Venus stage reporter fluorescence; active compounds read low; some inactives read as strong as hits. activity change (mCherry), % (test concentration not listed). 89,000 tested, 0.01% active. AID 1053133;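 active = mCherry past -33% and 40 or more points under the early reporter, replicates agreeing; inconclusive = past -33% without that gap or agreement; tested in A549 cells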;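 note: scaled between vehicle wells and reference inhibitor wells; 23 nL library stock went into each well; one replicate is shown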
Vaccinia stage Venus: recorded beside Vaccinia stage, whose call it bears; activity change (Venus), %; measured here: Venus reporter, other viral stage;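 negative = less Venus signal; first of two replicates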
Starred values were filed as active, the others as inactive; ? = inconclusive; / = not tested or not shown; & = joins results of further samples. Some of the compounds tested; rates above refer to the full screens.

nr | smiles | Vaccinia stage | Vaccinia stage Venus
1 | C[C@H](CO)N1C[C@H](C)[C@H](CN(C)C(=O)CCCN(C)C)OCCCC[C@H](C)Oc2ccc(NC(=O)C3CCCCC3)cc2C1=O | 21 | 3
2 | COc1ccc(NC(=O)Nc2ccc3c(c2)C(=O)N([C@@H](C)CO)C[C@H](C)[C@H](CN(C)C(=O)Nc2ccc(C(F)(F)F)cc2)OCCCC[C@H](C)O3)cc1 | 5 | 5
3 | COc1ccccc1-c1cnc2c(c1)C(=O)N([C@@H](C)CO)C[C@@H](C)[C@@H](CN(C)C(=O)CN(C)C)O2 | 2 | -3
4 | C[C@@H]1CN([C@@H](C)CO)C(=O)CCCn2nncc2CO[C@H]1CN(C)Cc1cccnc1 | 0&5 | 1&10
5 | C[C@H](CO)N1C[C@H](C)[C@@H](CN(C)C)Oc2cc(C#CC3CCCCC3)ccc2S1(=O)=O | ? | /
6 | CNC[C@@H]1Oc2ncc(-c3ccc(C#N)cc3)cc2C(=O)N([C@H](C)CO)C[C@@H]1C | 11 | 4
7 | C[C@@H]1CN([C@@H](C)CO)C(=O)c2cc(NC(=O)Cc3ccccc3)ccc2O[C@H]1CN(C)Cc1ccccc1 | -11 | -2
8 | Cc1noc(C)c1NC(=O)Nc1cccc2c1O[C@@H](CN(C)Cc1ccccc1)[C@@H](C)CN([C@@H](C)CO)C2=O | 0 | -5
9 | COc1ccc(CNC(=O)C[C@@H]2CC[C@H]3[C@@H](COc4ccc(NC(C)=O)cc4C(=O)N3C)O2)cc1 | -2 | 3
10 | C[C@@H]1CN([C@@H](C)CO)C(=O)Cc2cc(NS(=O)(=O)c3cn(C)cn3)ccc2O[C@@H]1CN(C)C(=O)Nc1ccccc1 | 19 | 8
11 | C[C@H]1CN([C@@H](C)CO)C(=O)c2cc(NC(=O)C3CC3)ccc2O[C@@H]1CN(C)S(C)(=O)=O | 13 | 10
12 | COc1ccc(C(=O)Nc2ccc(CN3C(=O)[C@]4(O[C@H](CC(=O)N5Cc6ccccc6C[C@H]5CO)[C@@H]([Si](C)(C)c5ccc(OC)cc5)[C@@H]4C)c4ccccc43)cc2)cc1 | -31 | -10
13 | COc1ccc(S(=O)(=O)N(C)C[C@H]2Oc3c(NC(=O)Nc4cccc5ccccc45)cccc3C(=O)N([C@H](C)CO)C[C@@H]2C)cc1 | 2 | 2
14 | CCC(=O)Nc1ccc2c(c1)OC[C@H](C)NC[C@@H](C)[C@@H](OC)CN(C)C2=O | 2 | -2
15 | O=C(c1ccccc1)N1CC[C@@H]2[C@H]1c1cc(-c3ccccc3F)ccc1N[C@@H]2CO | -20 | -9
16 | O=C(c1ccccn1)N1CC2(C1)[C@H](c1ccccc1)[C@@H](CO)N2Cc1ccc(Cl)cc1 | 13 | 13
17 | CC(C)NC(=O)N[C@H]1CC[C@@H](CC(=O)NCCN2CCCC2)O[C@H]1CO | 9 | 2
18 | CCC(=O)N1CCCCN2[C@H](C1)[C@H](c1ccc(/C=C/c3ccccc3)cc1)[C@@H]2CO | ? | /
19 | Cc1ccc(OC(=O)N(C)C[C@H]2OCc3cnnn3CCCC(=O)N([C@H](C)CO)C[C@@H]2C)cc1 | -4&1 | -3&-2
20 | C[C@@H]1C=C(C(=O)N2CCN(Cc3ccccc3)CC2)O[C@H](OCc2ccc(CO)cc2)C1 | 3 | -10
21 | O=C(NC1CCCC1)[C@@H]1[C@@H](CO)[C@@H]2Cn3c(ccc(-c4ccncc4)c3=O)[C@@H]2N1CC1CC1 | 12 | 2
22 | C[C@@H]1CN([C@@H](C)CO)C(=O)c2cc(-c3ccc(F)cc3)cnc2O[C@H]1CN(C)C(=O)c1ccccn1 | 16 | 15
23 | COc1ccc2c3c([nH]c2c1)[C@H](CO)N(C(=O)C1CCCC1)CC31CN(S(C)(=O)=O)C1 | 15 | 17
24 | Cc1noc(C)c1S(=O)(=O)N(C)C[C@@H]1OCCCC[C@H](C)Oc2ccc(NS(=O)(=O)c3cccs3)cc2C(=O)N([C@H](C)CO)C[C@@H]1C | ? | /
25 | C[C@@H](NC(=O)C[C@H]1CC[C@@H](NS(=O)(=O)c2cccc(F)c2)[C@@H](CO)O1)c1ccccc1 | 13 | 0
26 | C[C@@H]1CN([C@H](C)CO)C(=O)CCCn2nncc2CO[C@H]1CN(C)CC1CC1 | 2 | -3
27 | C[C@H]1CN([C@@H](C)CO)S(=O)(=O)c2ccc(-c3ccncc3)cc2O[C@H]1CN(C)S(=O)(=O)c1ccccc1F | -7 | -13
28 | COc1cccc(-c2ccc([C@@H]3[C@@H](CO)N4CCCCN(C(=O)c5ccc6c(c5)OCO6)C[C@@H]34)cc2)c1 | -19 | -32
29 | CC(C)NC(=O)Nc1ccc2c(c1)CC(=O)N([C@H](C)CO)C[C@H](C)[C@@H](CN(C)S(=O)(=O)c1cccs1)O2 | 28 | 19
30 | C[C@H](CO)N1C[C@H](C)[C@H](CN(C)S(=O)(=O)c2ccc(F)cc2)Oc2cc(C#Cc3ccncc3)ccc2S1(=O)=O | -20 | -11
31 | O=C(NCC(F)(F)F)[C@@H]1[C@@H](CO)[C@@H]2Cn3c(cccc3=O)[C@@H]2N1CCC(F)(F)F | 10 | 10
32 | Cc1noc(C)c1NC(=O)Nc1ccc2c(c1)C(=O)N([C@@H](C)CO)C[C@H](C)[C@@H](CN(C)S(=O)(=O)c1ccc(F)cc1)OCCCC[C@@H](C)O2 | 18 | 10
33 | O=C(C1=C[C@@H](c2ccccc2)C[C@@H](OCc2ccc(CO)cc2)O1)N1CCCC1 | 3 | 5
34 | CO[C@H]1CN(C)C(=O)c2ccc(NC(C)=O)cc2OC[C@@H](C)N(Cc2cccc(F)c2)C[C@H]1C | -1 | 2
35 | CC=Cc1ccc2n(c1=O)C[C@H]1[C@H](CO)[C@@H](C(=O)NC3Cc4ccccc4C3)N(CC3CCCC3)[C@@H]21 (mixture of isomers) | ? | /
36 | CN(C)CC(=O)N[C@@H]1CC[C@@H](CCn2cc(C3CCCC3)nn2)O[C@H]1CO | 9 | 17
37 | C[C@@H]1CN([C@@H](C)CO)C(=O)Cc2cc(NC(=O)CCN3CCOCC3)ccc2O[C@@H]1CN(C)Cc1ccccc1 | 1 | -3
38 | COCC(=O)N1[C@H](CO)[C@H]2c3ccccc3N(C(=O)c3ccccc3)C[C@H]21 | -15 | 4
39 | C[C@@H]1CCCCO[C@@H](CN(C)Cc2ccccc2)[C@H](C)CN([C@H](C)CO)C(=O)c2cc(NC(=O)CCC(F)(F)F)ccc2O1 | -34 | -17
40 | C[C@@H]1CN([C@@H](C)CO)C(=O)c2cc(NC(=O)CCC(F)(F)F)ccc2O[C@H]1CN(C)C(=O)Nc1ccc2c(c1)OCO2 | -1 | 3
41 | C[C@@H]1CN([C@H](C)CO)C(=O)c2cc(NC(=O)CCCN(C)C)ccc2O[C@@H](C)CCCCO[C@H]1CN(C)Cc1ccc2c(c1)OCO2 | 17 | 3
42 | C[C@@H]1CCCCO[C@@H](CN(C)Cc2ccccc2)[C@@H](C)CN([C@H](C)CO)C(=O)c2cc(NS(=O)(=O)c3cn(C)cn3)ccc2O1 | 52 | 22
43 | CO[C@@H]1CN(C)C(=O)c2ccc(NC(=O)C3CC3)cc2OC[C@H](C)N(CC2CCOCC2)C[C@@H]1C | 11 | 4
44 | COC(=O)[C@H]1[C@H](CO)[C@H]2Cn3c(ccc(-c4ccccc4)c3=O)[C@H]2N1S(C)(=O)=O | 6 | 6
45 | Cc1nn(C)cc1NC(=O)C[C@@H]1CC[C@@H]2[C@H](COc3ccc(NC(=O)C4CCOCC4)cc3C(=O)N2C)O1 | 9 | 10

Continued; the last 3 above are carried over.
nr | smiles | Vaccinia stage | Vaccinia stage Venus
43 | CO[C@@H]1CN(C)C(=O)c2ccc(NC(=O)C3CC3)cc2OC[C@H](C)N(CC2CCOCC2)C[C@@H]1C | 11 | 4
44 | COC(=O)[C@H]1[C@H](CO)[C@H]2Cn3c(ccc(-c4ccccc4)c3=O)[C@H]2N1S(C)(=O)=O | 6 | 6
45 | Cc1nn(C)cc1NC(=O)C[C@@H]1CC[C@@H]2[C@H](COc3ccc(NC(=O)C4CCOCC4)cc3C(=O)N2C)O1 | 9 | 10
46 | CO[C@H]1CN(C)C(=O)c2ccc(NC(=O)NC(C)C)cc2OC[C@H](C)N(C(=O)CC2CC2)C[C@H]1C | 12 | 10
47 | O=C(C[C@@H]1CC[C@@H]2[C@H](COC[C@@H](O)CN2C(=O)Nc2ccccc2)O1)NCCCN1CCOCC1 | 12 | 12
48 | C[C@H]1CN([C@@H](C)CO)C(=O)Cc2cc(NC(=O)Cc3ccccc3)ccc2O[C@@H]1CN(C)Cc1ccc(C(F)(F)F)cc1 | ? | /
49 | CCC(=O)N1CCCCN2[C@@H](CO)[C@H](c3ccc(C#Cc4ccccc4F)cc3)[C@@H]2C1 | -33 | -30
50 | C/C=C/c1ccc([C@H]2[C@@H](C#N)N(C(=O)CN3CCOCC3)[C@@H]2CO)cc1 | 3 | -1
51 | CCCC#Cc1ccc2c(c1)O[C@H](CN(C)C(=O)CC1CC1)[C@H](C)CN([C@H](C)CO)S2(=O)=O | -18 | -20
52 | O=C(C[C@H]1CC[C@@H](NC(=O)Cc2ccccn2)[C@H](CO)O1)NCCc1ccccc1 | -3 | -7
53 | CN(C)CCCNC(=O)C[C@@H]1C=C[C@@H](NS(=O)(=O)c2ccccc2)[C@H](CO)O1 | 0 | -1
54 | CCC(=O)N1CCCCN2[C@@H](CO)[C@H](c3ccc(-c4cccc(C(=O)N(C)C)c4)cc3)[C@@H]2C1 | 35 | 9
55 | CCCC#Cc1ccc([C@@H]2[C@@H](CO)N3C(=O)CN(C(=O)c4ccncc4)C[C@H]23)cc1 | 24 | 1
56 | C[C@H]1CN([C@@H](C)CO)S(=O)(=O)c2ccc(-c3cncnc3)cc2O[C@@H]1CN(C)C(=O)CN(C)C | 16 | 9
57 | C[C@@H]1CN([C@@H](C)CO)C(=O)c2cc(NS(=O)(=O)c3ccc(Cl)cc3)ccc2O[C@H]1CN(C)S(=O)(=O)c1cn(C)cn1 | 9 | 10
58 | COc1ccc(S(=O)(=O)N(C)C[C@H]2Oc3cc(C#CC4CCCCC4)ccc3S(=O)(=O)N([C@@H](C)CO)C[C@H]2C)cc1 | ? | /
59 | CC(=O)N(C)C[C@@H]1Oc2cc(C#CC(C)(C)O)ccc2S(=O)(=O)N([C@H](C)CO)C[C@@H]1C | 23 | 15
60 | C[C@@H]1CN([C@H](C)CO)S(=O)(=O)c2ccc(C#CCN(C)C)cc2O[C@H]1CN(C)Cc1ccccc1 | ? | /
61 | COC(=O)C[C@H]1C=C[C@@H](NS(=O)(=O)c2ccc(OC)cc2)[C@H](CO)O1 | 0 | -2
62 | C[C@H]1CCCCO[C@H](CN(C)Cc2ccc(C(=O)O)cc2)[C@@H](C)CN([C@@H](C)CO)C(=O)c2cc(N(C)C)ccc2O1 | 3 | -1
63 | O=C(C[C@H]1C[C@H]2c3cc(NS(=O)(=O)c4ccc(F)cc4)ccc3O[C@H]2[C@H](CO)O1)NCc1ccc(Oc2ccccc2)cc1 | ? | /
64 | N#C[C@H]1[C@H](c2ccccc2-c2ccccc2F)[C@H](CO)N1C(=O)C1CCC1 | 13 | 16
65 | CCCNC(=O)C[C@H]1CC[C@H]2[C@@H](COC[C@@H](O)CN2Cc2ccc(Cl)c(Cl)c2)O1 | -10 | 3
66 | Cc1ccc(S(=O)(=O)N(C)C[C@@H]2Oc3c(NC(=O)c4ccc(-c5nccs5)cc4)cccc3C(=O)N([C@H](C)CO)C[C@H]2C)cc1 | -14 | -12
67 | CO[C@@H]1CN(C)C(=O)c2ccc(NC(=O)NC(C)C)cc2OC[C@H](C)N(CC2CC2)C[C@@H]1C | 9 | 8
68 | Cc1cccc(-c2ccc([C@@H]3[C@@H](CO)N4CCCCN(S(=O)(=O)c5cn(C)cn5)C[C@H]34)cc2)c1 | -9 | -12
69 | CNC[C@@H]1Oc2cc(C#Cc3ccncc3)ccc2S(=O)(=O)N([C@@H](C)CO)C[C@@H]1C | 9 | 18
70 | C[C@@H]1CN([C@H](C)CO)C(=O)c2cc(NC(=O)Nc3ccc(C(F)(F)F)cc3)ccc2O[C@@H](C)CCCCO[C@@H]1CN(C)C(=O)Nc1cccc2ccccc12 | 9 | 2
71 | CCS(=O)(=O)Nc1ccc2c(c1)C(=O)N(C)C[C@H](OC)[C@@H](C)CN(C(=O)CN(C)C)[C@H](C)CO2 | 2 | 4
72 | C[C@H](CO)N1C[C@H](C)[C@H](CN(C)C(=O)c2ccncc2)OCCCC[C@H](C)Oc2ccc(N(C)C)cc2C1=O | 12 | 12
73 | OC[C@@H]1[C@@H](c2ccc(-c3cccc(F)c3)cc2)[C@@H]2CN(CCC(F)(F)F)CCCCN12 | ? | /
74 | C[C@@H](NC(=O)C[C@H]1CC[C@@H]2[C@H](COC[C@H](O)CN2C(=O)Nc2cccc(F)c2)O1)c1ccccc1 | 0 | 2
75 | C[C@H](CO)N1C[C@H](C)[C@H](CN(C)C(=O)c2cccnc2)Oc2ncc(/C=C/c3ccccc3)cc2C1=O | 13 | 2
76 | O=C(NCC[C@@H]1CC[C@@H](NS(=O)(=O)Cc2ccccc2)[C@@H](CO)O1)C1CC1 | -4 | -6

Entries by screen from above:
Entries 70–76 in Vaccinia stage: 9, 2, 12, ?, 0, 13, -4
Entries 70–76 in Vaccinia stage Venus: 2, 4, 12, /, 2, 2, -6

3 compounds from above, ordered by number of heavy atoms, descending.
nr | smiles | Vaccinia stage | Vaccinia stage Venus
71 | CCS(=O)(=O)Nc1ccc2c(c1)C(=O)N(C)C[C@H](OC)[C@@H](C)CN(C(=O)CN(C)C)[C@H](C)CO2 | 2 | 4
4 | C[C@@H]1CN([C@@H](C)CO)C(=O)CCCn2nncc2CO[C@H]1CN(C)Cc1cccnc1 | 0&5 | 1&10
14 | CCC(=O)Nc1ccc2c(c1)OC[C@H](C)NC[C@@H](C)[C@@H](OC)CN(C)C2=O | 2 | -2
